# Screening results: PubChem BioAssay, Johns Hopkins Ion Channel Center
# KCNQ2 inh: KCNQ2 potassium channel inhibitors, primary screen, cell-based, CHO-K1, FluxOR thallium flux, B-score (AID 2156); O88943; 20 min; hits give low values; only compounds with negative scores are shown here; some inactives read as strong as hits; B-score at 10 µM; actives 1.1% (n = 310,000);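 active = fluorescence ratio B-score at most minus 3 library SDs, with starting brightness B-score within 2 library SDs, cut at about -5.5 in these data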
# Target sequence (O88943 whole entry, looked up): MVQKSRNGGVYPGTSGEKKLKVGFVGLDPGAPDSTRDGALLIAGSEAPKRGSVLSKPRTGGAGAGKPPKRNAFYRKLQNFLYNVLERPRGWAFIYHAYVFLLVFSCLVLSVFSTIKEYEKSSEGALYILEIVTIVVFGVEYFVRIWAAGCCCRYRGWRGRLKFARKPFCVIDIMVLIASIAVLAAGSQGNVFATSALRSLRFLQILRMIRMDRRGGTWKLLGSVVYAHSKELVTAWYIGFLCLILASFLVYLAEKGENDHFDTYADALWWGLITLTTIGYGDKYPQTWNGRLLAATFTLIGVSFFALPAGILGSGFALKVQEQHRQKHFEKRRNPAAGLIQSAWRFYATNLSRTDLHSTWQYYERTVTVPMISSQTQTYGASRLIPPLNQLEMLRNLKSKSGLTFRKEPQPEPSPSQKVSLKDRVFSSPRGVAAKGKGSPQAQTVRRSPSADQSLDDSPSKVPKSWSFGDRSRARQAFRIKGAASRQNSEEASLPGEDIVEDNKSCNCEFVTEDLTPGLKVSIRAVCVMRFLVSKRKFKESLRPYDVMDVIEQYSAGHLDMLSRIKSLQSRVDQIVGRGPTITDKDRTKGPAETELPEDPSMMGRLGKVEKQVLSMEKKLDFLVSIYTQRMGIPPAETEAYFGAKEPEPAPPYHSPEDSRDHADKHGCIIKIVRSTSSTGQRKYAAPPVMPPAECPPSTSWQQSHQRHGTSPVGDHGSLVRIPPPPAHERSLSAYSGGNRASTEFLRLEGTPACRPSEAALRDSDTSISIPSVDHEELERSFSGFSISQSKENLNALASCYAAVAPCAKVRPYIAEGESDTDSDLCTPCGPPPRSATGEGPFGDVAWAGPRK
# KCNQ2 inh baseline: also measured in KCNQ2 inh; calls as there; B-score; measured here: initial fluorescence intensity artifact check;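 brightness before thallium and not channel activity; 0 = typical well and far values either way flag optical interference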
# Numbers without * were called inactive; i = inactive.
# Each structure is followed by: KCNQ2 inh	KCNQ2 inh baseline
CC(C)CC(CO)N1CCN(C(=O)c2ccc(Cl)cc2)CCC1=O (configuration not stated)
  i	-1.6
Cc1[nH]c2ccc(-c3n[nH]c(=S)n3C)cc2c1C
  i	-1.1
COc1cccc(C(=O)NNC(=O)c2ccc(NS(=O)(=O)c3cccs3)cc2)c1OC
  i	-1.7
Cc1ccc(S(=O)(=O)N/N=C\c2ccc3c(c2)OCO3)c(C)c1
  i	0.79
COc1ccc(/C=N/OCC(=O)N2CC3(C)CC2CC(C)(C)C3)cc1OC (configuration not stated)
  i	-1.7
O=C(O)c1cccc(S(=O)(=O)Nc2ccccc2Cc2ccccc2)c1
  i	-0.39
NC(=O)CN1CCOCCN(CC(N)=O)CCOCC1
  i	7.6
O=C(O)CSc1nnc(Nc2ccccc2)n1-c1ccccc1
  i	1.9
O=C(COC(=O)c1ccccc1SCC(=O)N1CCCC1)NC1CCCCC1
  i	-1.1
CC(C)NC(=O)N(O)C1N(C(C)C)C(=O)N(Cc2ccc3c(c2)OCO3)C1(C)C (configuration not stated)
  i	-0.46
CC1CCc2cc(F)ccc2N1C(=O)c1ccc2c(c1)OCO2 (configuration not stated)
  i	2.9
CCN1CCN(CC(O)COC(c2ccccc2)c2ccccc2)CC1 (configuration not stated)
  i	0.07
CC(C)(C)n1nnnc1CN(Cc1ccc(F)cc1)Cc1ccco1
  i	-2.1
Cc1n[nH]c(=S)n1/N=C/c1ccccc1
  i	2.4
COc1ccc(NC(=O)NCCN2CCc3ccccc3C2)cc1
  i	0.9
CCC(C)(C)NC(=O)C(c1ccco1)N(C(=O)Cn1nnc2ccccc21)c1ccc2c(c1)OCO2 (configuration not stated)
  i	0.53
COc1ccc(NS(=O)(=O)c2ccc(C)c(C(=O)NNC(=O)c3ccccc3O)c2)cc1
  i	-0.02
COc1ccc(CC2(C)OC(c3ccccc3)=NN2C(C)=O)cc1 (configuration not stated)
  i	1.4
COC(=O)/C(C#N)=C/c1c(-c2ccccc2)nc2n1CCS2
  i	2.1
Cc1ccc(CSc2nnnn2C)cc1
  i	-0.57
CCn1cc(C(=O)NCc2cccc(F)c2)c(=O)c2cc(F)c(N3CCN(C(=O)c4ccco4)CC3)cc21
  i	0.27
COc1ccc(CCCc2nnc(SCc3nc4ccccc4c(=O)[nH]3)n2C)cc1
  i	-2
CCN1CCN(C(CNS(=O)(=O)c2ccc(Br)cc2)c2cccnc2)CC1 (configuration not stated)
  i	0.67
Cc1cc(SCC(=O)N/N=C/c2ccccc2C(=O)O)c(C)cc1Br
  i	-0.04
CCOC(=O)c1ccccc1NC(=O)COC(=O)CCC(=O)N1CCOCC1
  i	0.05
O=C(Cn1cc([N+](=O)[O-])cn1)N1CCN(Cc2ccc3c(c2)OCO3)CC1
  i	-0.5
Cn1c(Cn2cnc([N+](=O)[O-])n2)nnc1SCC(=O)Nc1cccc(Cl)c1
  i	-0.56
Cc1ccc(C(=O)Nc2ccc(C(=O)N/N=C/c3cccnc3)cc2)cc1
  i	-1.3
COc1cc(-n2c(C)nc3cc(C(=O)N4CCOCC4)ccc32)cc(OC)c1OC
  i	0.36
CCCNC(=O)CS(=O)Cc1nc(-c2cccc(OC)c2)oc1C (configuration not stated)
  i	-1.4

# A second format for two compounds above:
O=C(Cn1cc([N+](=O)[O-])cn1)N1CCN(Cc2ccc3c(c2)OCO3)CC1
  KCNQ2 inh: i; KCNQ2 inh baseline: -0.5

Cn1c(Cn2cnc([N+](=O)[O-])n2)nnc1SCC(=O)Nc1cccc(Cl)c1
  KCNQ2 inh: i; KCNQ2 inh baseline: -0.56

# Further compounds
# Each structure is followed by: KCNQ2 inh	KCNQ2 inh baseline
Cc1ccccc1-n1c(-c2ccoc2C)n[nH]c1=S
  i	2.3
Cc1c(NC(=O)c2ccc3c(c2)OCO3)cccc1-c1nc2ccccc2o1
  i	0.94
Fc1ccc(-c2nn(-c3ccccc3)cc2CNCc2ccccc2)cc1
  i	-0.43
COc1ccc(CC(=O)Nc2ccc(OC)nc2)cc1
  i	0.55
Cc1ccccc1OCc1nc(C#N)c(N2CCCC2)o1
  i	0.9
O=c1cc(-c2ccc(O)cc2)oc2cc(O)c(C3OC(CO)C(O)C(O)C3O)c(O)c12 (configuration not stated)
  i	-2.8
COc1cccc(C(=O)NCCS(=O)(=O)N2CCOCC2)c1
  i	-0.01
COc1ccc(-n2nc(C(=O)Nc3ccc4c(c3)OCO4)c3ccccc3c2=O)cc1
  i	-0.02
On1c(-c2ccco2)nc2c1CCc1nonc1-2
  i	-0.04
CCN(CC)S(=O)(=O)c1ccc(Cl)c(NC(=O)CSc2nnc(-c3cccs3)o2)c1
  i	-0.9
CCCNC(=O)Nc1cc(C)on1
  i	-2.1
O=C(Nn1c(C2CCC2)nc2ccccc2c1=O)c1cccs1
  i	-0.08
CC(=O)Nc1ccc(N/C(=N\S(=O)(=O)c2ccccc2)c2ccccc2)cc1
  i	0.23
c1ccc(-c2nnc(SCCC3OCCCO3)o2)cc1
  i	1.6
O=C(C[n+]1cc(Br)cc(Br)c1)c1ccccc1
  i	-0.88
COc1cc(Cl)c(C)cc1NC(=O)COC(=O)c1cnc(C)cn1
  i	3.2
O=C(Oc1cccc2cccnc12)c1ccc(N2C(=O)C3C4CCC(C4)C3C2=O)cc1 (configuration not stated)
  i	0.21
COc1cccc(OC)c1C(=O)Nc1ccc(N2CCN(S(C)(=O)=O)CC2)cc1
  i	1.7
Cc1nnc2sc(-c3ccco3)nn12
  i	-0.26
CC1=CC(C)(C)N(S(=O)(=O)c2ccc(F)cc2)c2ccccc21
  i	1.2
O=C(NC1CCCCC1)c1cc(N2C(=O)CCC2=O)ccc1Cl
  i	0.09
CCOc1ccccc1CNC(=O)C1CCCN(c2nn3c(=O)cc(C)nc3s2)C1 (configuration not stated)
  i	-0.86
CC1(C)Cc2nc(-c3ccccc3)n3cnnc3c2CO1
  i	-0.64
CN(C)CC(=O)N1c2ccccc2CCc2ccc(NC(=O)c3ccc(N)cc3)cc21
  i	0.91
Cc1nn(C)c(C)c1CN(C)C(=O)c1cnn2c1NC(c1ccccc1)CC2C(F)(F)F (configuration not stated)
  i	0.17
CCCCOc1ccccc1P(=O)(O)CP(=O)(c1ccccc1)c1ccccc1
  i	2
CCOC(=O)N1CCN(C(=O)C2CCN(S(=O)(=O)c3cc(Cl)ccc3Cl)CC2)CC1
  i	-1.2
Cc1ccc2[nH]c3c(c2c1)CCCC3NCCO (configuration not stated)
  i	-0.75
Cc1noc(C)c1N=Nc1ccc(Br)cc1C(=O)O
  i	2.5
O=C(COC(=O)c1ccc(Cl)nc1)Nc1ccc2c(c1)OCO2
  i	-0.42

# Brought forward from above: 2 compounds, then new ones.
molecule,KCNQ2 inh,KCNQ2 inh baseline
Cc1noc(C)c1N=Nc1ccc(Br)cc1C(=O)O,i,2.5
O=C(COC(=O)c1ccc(Cl)nc1)Nc1ccc2c(c1)OCO2,i,-0.42
Cc1cc(C)c(S(=O)(=O)n2ccc3ccccc32)c(C)c1,i,-1.4
O=C(O)C1=C[C@@H](c2ccccc2)C[C@@H](OCCCCO)O1,i,0.02
CCc1ccc2c(c1)C(c1cccs1)=NNC(c1cccnc1)=N2,i,0.58
O=C(NCCc1cccs1)C1CC(c2ccc([N+](=O)[O-])cc2)=NO1 (configuration not stated),i,0.02
CC(C)C[C@@H](C(=O)NC1CC1)N1C(=O)N2CCc3c([nH]c4ccccc34)[C@@]2(C)C1=O,i,-0.4
O=C(N/N=C/c1ccc2c(c1)OCO2)c1ccc2c(c1)OCO2,i,-0.04
Cc1occc1C(=O)NCCc1ccc(Cl)cc1,i,0.98
O=C(Cc1csc(Nc2nc(=S)[nH]c3ccccc23)n1)NCCCN1CCN(c2ccccc2F)CC1,i,0.53
CCCn1nc2cc(C(=O)NCCCCc3ccccc3)ccc2c1OCC,i,-0.86
N#Cc1cccc(NC(=O)c2nc(-c3ccccc3)n(-c3ccccc3)n2)c1,i,-0.27
CCCn1c(SCC(=O)Nc2cccc(S(=O)(=O)N(C)C)c2)nc2ccccc2c1=O,i,0.37
COCCCN1CCN(C2Cc3ccccc3Sc3ccc(Cl)cc32)CC1 (configuration not stated),i,1.3
O=C(Nc1c(-c2ccc(F)cc2)nc2ccccn12)c1ccc(F)cc1,i,-0.15
O=[N+]([O-])c1ccc(C(=S)N2CCN(Cc3ccccc3)CC2)cc1,i,1.8
FC(F)(F)c1cnc(-c2cnc(-c3cccnc3)nc2)c(Cl)c1,i,-0.66
Cc1oc2c(cc(NS(=O)(=O)c3ccc4c5c(cccc35)C(=O)N4)c3ccccc32)c1C(=O)OC(C)C,i,1.3
O=C(Cc1ncc(C(F)(F)F)cc1Cl)NC1CC1,i,-0.2
CCN(CC(=O)Nc1ccc2c(c1)OCCO2)C(=O)COc1ccc(C)cc1,i,-1.4
CCN(Cc1ccccc1)S(=O)(=O)c1c[nH]c(C(=O)OC)c1,i,0.03
CCN1/C(=C/c2ccc3cc(C)ccc3[n+]2CC)Sc2ccccc21,i,47

# As entered above:
# Reading of `Cn1c(Cn2cnc([N+](=O)[O-])n2)nnc1SCC(=O)Nc1cccc(Cl)c1` in KCNQ2 inh baseline: -0.56
# Reading of `O=C(O)CSc1nnc(Nc2ccccc2)n1-c1ccccc1` in KCNQ2 inh baseline: 1.9

# Continuation:
molecule,KCNQ2 inh,KCNQ2 inh baseline
COc1cc(OC)cc(C(=O)NNC(=O)c2ccc(-n3cncn3)c([N+](=O)[O-])c2)c1,i,-0.73
Cc1cccc(NC(=O)CC23CC4CC(C2)CC(n2nnc(C)n2)(C4)C3)c1,i,0.06
O=C(NCc1ccco1)C(C(=O)c1ccc(F)cc1)n1ccccc1=O (configuration not stated),i,0.76
O=C1C2C3C=CC(C3)C2C(=O)N1c1ccncc1 (configuration not stated),i,2.1
COc1cc(C(=O)NCCC(=O)NCCN2CCOCC2)cc(OC)c1OC,i,0.54
Cc1cccc(C(=O)N=c2c(C#N)cc3c(=O)n4cccc(C)c4nc3n2Cc2ccco2)c1,i,4.4
O=C(COC(=O)/C=C/c1ccc([N+](=O)[O-])cc1)NCC1CCCO1 (configuration not stated),i,-1.8
CC1CCN(C(=O)c2ccc3ccccc3c2)CC1,i,0.05
O=C(OCC(O)C(O)COC(=O)c1ccccc1)c1ccccc1 (configuration not stated),i,0.4
Cc1ccc(C(C(=O)NC2CCCCC2)N(C(=O)c2csnn2)C2CCCC2)o1 (configuration not stated),i,0.5
CC(=O)N1CC2(NC(=O)c3ccccc3N2)c2ccccc21 (configuration not stated),i,0.01
N/C(=N\OC(=O)c1ccc(Cl)cc1)c1cccnc1,i,-0.02
Cc1ccc(-n2nc3ccc(NC(=O)c4ccc5c(c4)OCO5)cc3n2)cc1,i,1
c1ccc(N2CCN(C3CC4CCC3C4)CC2)cc1 (configuration not stated),i,0.73
CCOc1ccccc1NC(=O)c1ccccc1N(C)S(=O)(=O)c1ccc(C)cc1,i,0.17
CCOC(=O)C1(Cc2cccc(Cl)c2)CCCN(C(=O)c2cc(C)on2)C1 (configuration not stated),i,-0.03
Cc1cccc(S(=O)(=O)N2CN(CC3CCCO3)c3nc4ccccc4nc32)c1 (configuration not stated),i,1.4
Cc1nnc(N/N=C/c2c[nH]c3ccccc23)[nH]c1=O,i,1.4
COc1cccc(NC(=O)c2cnc(SCC(=O)NCc3ccc4c(c3)OCO4)n(C)c2=O)c1,i,0.01
Cc1ccc(Nc2nc(CSc3nnc(-c4ccc(F)cc4)n3C)cs2)cc1,i,1.3

# Brought forward from above: 5 compounds, then new ones.
molecule,KCNQ2 inh,KCNQ2 inh baseline
CCOC(=O)C1(Cc2cccc(Cl)c2)CCCN(C(=O)c2cc(C)on2)C1 (configuration not stated),i,-0.03
Cc1cccc(S(=O)(=O)N2CN(CC3CCCO3)c3nc4ccccc4nc32)c1 (configuration not stated),i,1.4
Cc1nnc(N/N=C/c2c[nH]c3ccccc23)[nH]c1=O,i,1.4
COc1cccc(NC(=O)c2cnc(SCC(=O)NCc3ccc4c(c3)OCO4)n(C)c2=O)c1,i,0.01
Cc1ccc(Nc2nc(CSc3nnc(-c4ccc(F)cc4)n3C)cs2)cc1,i,1.3
CCc1nn(CCCC(=O)N(C)Cc2ccccc2)c(=O)c2cc3occc3n12,i,-0.81
COC(=O)[C@H](CC(C)C)NC(=O)NCCC1=CCCCC1,i,-0.03
Cc1c(C(=O)c2ccccc2)c2ccccn2c1CCc1ccccn1,i,0.19
COc1cccc2cc(C(=O)OCC(=O)NCc3ccc4c(c3)OCO4)c(=O)oc12,i,-0.62
Clc1ccc(/C=N/NC2=Nc3cccc4cccc2c34)cc1,i,2.6
COc1ccc(/C=C/C(=O)c2ccc(Cl)cc2)c(OC)c1,i,-0.59
O=c1[nH]c(=O)n(C2CCCO2)cc1Br (configuration not stated),i,0.67
COc1ccc(-n2cc(CN3CCC(OC)CC3)c(-c3cccc(F)c3)n2)cc1,i,-0.42
Cc1cc(C)cc(N(CCC#N)C(=O)CN2C(=O)NC3(CCCC3)C2=O)c1,i,0.89
C/C(=C/C(=O)N1CCc2ccccc21)C(=O)O,i,-0.16
CC(C)C(=O)Nc1ccc(NC(=O)c2ccc3c(c2)OCO3)cc1,i,-0.96
CC(=O)Nc1ccccc1C(=O)C(=O)Nc1ccccc1,i,2.1
COC(=O)c1ccccc1NC(=O)c1onc(C)c1Cl,i,-0.27
CC(=O)Nc1cccc(NC(=O)C2CCCN2C(=O)Nc2cccc(F)c2)c1 (configuration not stated),i,-1.3
Cc1cccc(N(Cc2ccccc2)C(=O)c2ccccc2S(C)(=O)=O)c1,i,-0.85
Cc1cc(Oc2ccccc2)nc(SCC(=O)Nc2ccc(Cl)cc2Cl)n1,i,0.45
COc1ccc(Br)cc1C(=O)NC(=S)Nc1c(C)n(C)n(-c2ccccc2)c1=O,i,2.1
COc1cc(NC(=O)Cc2cccs2)c(C(=O)O)cc1OC,i,-1.5
COc1ccccc1N1C(C)=CC(=C(C#N)c2nc3ccccc3s2)C=C1C,i,0.9
CC1CCN(Cc2c(C(=O)N/N=C/c3ccc(C(F)(F)F)cc3)nnn2-c2nonc2N)CC1,i,-0.48
CC(C)CCNC(=O)CNC(=S)N(CCCN1CCOCC1)Cc1cccs1,i,3.1

# An excerpt. The share of hits here may be higher or lower than overall.
